Anthrax LT inh = inhibitors of anthrax lethal toxin internalization | Cells, anthrax lethal toxin internalization, FRET ratio (460/530) | Potency, µM (doses to about 40 µM), for inactives: top-dose activity change, negative = inhibition, usual class: inhibitors | hit rate 0.67% among 70,000 | AID 912; active = well fitted falling ratio curve with the 530 nm signal flat; inconclusive = other ratio curves, or a change in one channel alone; inactive = flat curves in the ratio and both channels; the % refers to the ratio; also: % is scaled to controls: 0 for no effect and ±100 for the full control effect; nearly all actives have a fitted effect of over 50% in size; tested in ME-180 cells; beta-lactamase reporter
Prx2 Sm inh = blocks S. mansoni peroxiredoxin 2 enzymatic activity. S. mansoni Prx2 activity coupled to TGR/GSH (TGR is thioredoxin glutathione reductase), NADPH fluorescence loss, qHTS; some inactives read as strong as hits. Potency, µM. hit rate 0.07% among 65,000. AID 448; active means full or partial inhibition curve with a strong effect at the top dose; inconclusive means weaker partial or single-point curve; inactive means no accepted curve; also: series up to 57 µM; many of its hits are not listed in these tables
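Prx2 activity was followed as the loss of NADPH fluorescence (ex 365/em 450 nm), read every 30 sec for 8 min after H2O2 start. The enzyme mix (50 nM Prx2, 25 nM TGR, GSH, NADPH; pH 7.4 phosphate buffer) was incubated with compound for 15 min at room temperature first.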
The depositor's hits bear a star; ? = inconclusive; · = not tested or not shown; [ ] = dose if it differs, or a comment. Potency is read from the fitted curve at half-maximal effect. Not all compounds are listed, so the mix of outcomes need not match the whole.

SMILES	Anthrax LT inh	Prx2 Sm inh
CCn1cc(C(=O)N2CCOCC2)c(=O)c2cc(S(=O)(=O)N(C)C3CCCCC3)ccc21	-9%	>57
CC(C)c1nc(SCC(=O)NCc2ccccc2)n[nH]1	1%	>57
CC(=O)N1CCc2cc(S(=O)(=O)CCC(=O)Nc3ccc4c(c3)OCCO4)ccc21	4%	>57
COC(=O)c1cc(Br)c(=O)n(Cc2ccc(C(=O)O)cc2)c1	?	>57
COc1ccc(CN2C(=O)c3cccnc3C2Nc2cc(Cl)ccc2OC)cc1 (stereo not given)	-9%	>57
Cc1noc(C)c1C(=O)N1CCN(c2ncccn2)CC1	-4%	>57
CCN(CCCNC(=O)C1CCN(S(=O)(=O)N2CCC3(CC2)OCCO3)CC1)c1ccccc1	4%	>57
Cc1cc2nnc(SCc3ccccc3)n2c(N)n1	9%	>57
COCCn1c(=O)c(-c2ccc(OC)cc2)nc2cnc(Oc3cccc(Cl)c3)nc21	?	>57
CCn1cc(C(=O)N2CCc3ccccc32)c(=O)c2cc(S(=O)(=O)N3CCOCC3)ccc21	-6%	>57
CCn1c2ccc(CC(=O)O)cc2c2cc(CC(=O)O)ccc21	-3%	>57
O=C(CN1CCCCC1)Nc1ccc(S(=O)(=O)NC2CCCCC2)cc1	-4%	>57
O=C(c1ccccc1)n1nc(-c2ccccc2)nc1NCc1ccco1	?	>57
Cc1ccc(S(=O)(=O)n2nc(-c3ccco3)nc2SCc2ccccc2)cc1	-6%	>57
CSc1nc(N)nc(SC2C=CCCC2)c1C#N (stereo not given)	-22%	>57
O=C(OCc1cc2ccccc2[nH]c1=O)c1ccco1	5%	>57
Cc1ccccc1-c1ccc(C=Nc2c(C)n(C)n(-c3ccccc3)c2=O)o1	0%	>57
Cc1csc(C(C#N)C(=O)c2ccncc2)n1 (stereo not given)	5%	>57
CC(=O)Nc1ccc(S(=O)(=O)Nc2nccc(C3Cc4ccccc4C(=O)O3)n2)cc1 (stereo not given)	-7%	>57
CC(C)Cc1cc(C(=O)NCc2ccco2)no1	-3%	>57
COCCNC(=O)CN(C)S(=O)(=O)c1ccc2c(c1)OCCO2	10%	>57
O/N=C1/CCCCC1c1ccccn1 (stereo not given)	?	>57
COc1ccc2[nH]cc(CCNc3nc(-c4ccccc4OC)nc4ccccc34)c2c1	?	>57
O=C(CSc1ncnc2c1cnn2-c1ccccc1)Nc1ccccc1	?	>57
O=C(CSc1ncnc2sc3c(c12)CCCCC3)NCc1ccco1	?	>57

(next part)
SMILES	Anthrax LT inh	Prx2 Sm inh
O=C(CNC(=O)c1ccco1)Nc1cc(Cl)ccc1N1CCOCC1	-7%	>57
COc1ccc(N/C(N)=N/c2nc(CSc3ccc(C)cc3)cc(=O)[nH]2)cc1	1%	>57
Clc1ccc(Cn2nnc(-c3ccc(CN4CCOCC4)cc3)n2)cc1	-8%	>57
Cc1ccc(C2NC(=O)c3c(sc4c3CCN(C)C4)N2)o1 (stereo not given)	24%	>57
COC(=O)c1ccc(NC(=O)CN2CCCC2)cc1	-13%	·
Cc1nn(-c2nc3ccccc3s2)c(N)c1-c1ccc(Cl)cc1	-1%	>57
CC1(C)Cc2c(sc3c2c(=N)n(Cc2ccco2)c(=O)n3CC(=O)Nc2ccccc2)CO1	-7%	>57
Cc1nn(Cc2ccc(C(=O)Nc3ccc(C(=O)OC(C)C)cc3)o2)c(C)c1Cl	-9%	>57
CC1CN(C(=O)CN2C(=O)c3ccccc3S2(=O)=O)CC(C)O1 (stereo not given)	7%	>57
CC(=O)Nc1ccc2oc(-c3ccccc3Br)nc2c1	?	>57
COC(=O)c1cc(Br)c(=O)n(CCN(C(C)C)C(C)C)c1	?	>57
O=C(COC(=O)CCc1nc2ccccc2s1)Nc1ccc(S(=O)(=O)N2CCOCC2)cc1	-7%	·
Cc1ccc(C2CCN(C(=O)Nc3ccccc3)C2)cc1 (stereo not given)	-5%	>57
O=C(Nc1nccs1)c1ccc(COc2ccc(Cl)cc2)o1	-19%	>57
O/N=C1\CC/C(=N\O)c2nn(-c3ccccc3Cl)nc21	-12%	>57
c1ccc(-c2cc3c(nn2)CCc2nonc2-3)cc1	-5%	>57
O=C(CN1C(=O)CSc2ccccc21)NCCC1=CCCCC1	3%	>57
N#Cc1cccc(NC(=O)N2CCCC3(CCN(C(=O)c4cccc(F)c4)CC3)C2)c1	2%	>57
CCOc1ccccc1N(CC(=O)OC)S(C)(=O)=O	-3%	>57
COc1ccc(CC(NC(C)=O)C(=O)N2CCN(C(=O)Nc3ccc(Cl)cc3)CC2)cc1OC (stereo not given)	-4%	>57
CC(C)OS(C)(=O)=O	2%	·
COc1ccc(CN(CC(=O)NCC2CCCO2)C(=O)CNS(=O)(=O)c2ccc(C)cc2)cc1 (stereo not given)	9%	>57
c1csc(CNc2ncnc3ccc(-c4ccoc4)cc23)c1	-22%	>57
O=C(CCSc1ccccc1)N1CCOCC1	14%	>57
COCC(=O)Nc1sc2c(c1C(=O)OC)CCCC2	-8%	>57

An excerpt of these results, as labelled records.
Cc1nn(Cc2ccc(C(=O)Nc3ccc(C(=O)OC(C)C)cc3)o2)c(C)c1Cl
  Anthrax LT inh = -9%
  Prx2 Sm inh = >57

CC1CN(C(=O)CN2C(=O)c3ccccc3S2(=O)=O)CC(C)O1 (stereo not given)
  Anthrax LT inh = 7%
  Prx2 Sm inh = >57

CC(=O)Nc1ccc2oc(-c3ccccc3Br)nc2c1
  Anthrax LT inh = ?
  Prx2 Sm inh = >57

COC(=O)c1cc(Br)c(=O)n(CCN(C(C)C)C(C)C)c1
  Anthrax LT inh = ?
  Prx2 Sm inh = >57

Other records.
SMILES	Anthrax LT inh	Prx2 Sm inh
C/C(CC(O)c1ccc2ccccc2n1)=N/O (stereo not given)	-2%	>57
CCCCn1c(CNC(=O)CC)nc2ccccc21	-5%	>57
N#CCc1ccc(NC(=O)Nc2cccc(Cl)c2)cc1	?	>57
COc1ncc2nc(-c3cn(C)c4ccccc34)c(=O)n(CCc3ccccc3)c2n1	?	>57
COc1cccc(-n2nnnc2SCC(=O)c2ccc(NC(C)=O)cc2)c1	?	>57
CC(C)CNC(=O)c1cccc(NC(=O)c2ccc(NC(=O)c3ccco3)cc2)c1	-4%	>57
CC(=O)Nc1ccc(Cl)c(C(N)=O)c1	-1%	>57
Cc1noc(C)c1S(=O)(=O)N(CC(=O)N1CCc2ccccc21)c1ccc(C(C)C)cc1	-10%	>57
O=C(c1ccncc1)N1CCC2(CC1)CN(Cc1ccccc1)C2	18%	>57
CC(C)NC(=O)N(O)C1N(Cc2ccc3c(c2)OCO3)C(=S)SC1(C)C (stereo not given)	-2%	>57
Cc1ccccc1S(=O)(=O)Cc1ccc(C(=O)N2CC(C)CC(C)C2)o1 (stereo not given)	3%	>57
CCOC(=O)c1ccc(CNC(=O)c2cc3cccc(OC)c3oc2=O)o1	8%	>57
CS(=O)(=O)N1CCCC(C(=O)NCc2ccco2)C1 (stereo not given)	?	>57
CCOC(=O)C1(CCSC)NC(c2ccco2)C2C(=O)N(CC)C(=O)C21 (stereo not given)	6%	>57
O=C(CC1NC2CCCCC2NC1=O)Nc1ccc2c(c1)OCO2 (stereo not given)	0%	>57
CS(=O)(=O)c1ccc2nc(NC(=O)C3CCCCC3)sc2c1	?	·
c1coc(CNC2CCCCCCC2)c1	-14%	>57
O=C(CCN1C(=O)C2C3C=CC(C3)C2C1=O)Nc1c(F)cccc1F (stereo not given)	3%	>57
O=C(NCc1cccnc1)C1CCCN(S(=O)(=O)c2ccc(Br)cc2)C1 (stereo not given)	-1%	>57
O=S(=O)(NCc1cccnc1)c1ccc(Br)s1	-2%	>57
COc1cc2ccc([C@H](C)NCC#N)cc2cc1OC	?	>57
Cc1ccc(OCC(O)Cn2c(NCCc3ccccc3)nc3c2c(=O)[nH]c(=O)n3C)cc1 (stereo not given)	-8%	>57
COc1cc(OC)cc(C2C(C#N)=C(N)Oc3n[nH]c(-c4cccnc4)c32)c1 (stereo not given)	-12%	>57
COc1cc2c(cc1OC)C(C(=O)Nc1cccc(C)n1)C(c1cccnc1)N(C)C2=O (stereo not given)	5%	>57
CCC(C)(C)n1nnnc1C(c1cc(OC)c(OC)c(OC)c1)N1CCN(c2ccccc2)CC1 (stereo not given)	-4%	>57

Exported with each value named: part of the list above
> Cc1ccccc1S(=O)(=O)Cc1ccc(C(=O)N2CC(C)CC(C)C2)o1 (stereo not given)
  Anthrax LT inh: 3%; Prx2 Sm inh: >57
> CCOC(=O)c1ccc(CNC(=O)c2cc3cccc(OC)c3oc2=O)o1
  Anthrax LT inh: 8%; Prx2 Sm inh: >57

Continuation.
SMILES	Anthrax LT inh	Prx2 Sm inh
COc1ccc(-n2nnc3c(=O)n(CC(=O)N4CCC(Cc5ccccc5)CC4)cnc32)cc1	-12%	>57
CC(=O)NCC(=O)NC(C(=O)Nc1ccc2c(c1)OCCO2)c1ccccc1 (stereo not given)	4%	>57
O=c1c2ccccc2nc(-c2ccco2)n1Cc1ccccc1	-1%	>57
NS(=O)(=O)c1cc2c(cc1Cl)NC(CSCc1ccccc1)=NS2(=O)=O	1%[3.58 µM]	>57
CCCCn1c(CN2CCN(c3ccc(F)cc3)CC2)nc2c1c(=O)n(C)c(=O)n2C	16%	>57
O=C(NCC1CCCO1)c1csc2c1CCCCC2 (stereo not given)	0%	>57
Cc1ccccc1OCc1nc(-c2ccc(NC(=O)c3ccc4c(c3)OCO4)cc2)no1	-8%	>57
CCOc1ccccc1-c1nc(-c2ccc(C)nc2OC)no1	-10%	>57
CCOc1ccc(NC(=O)COC(=O)c2cccnc2)cc1	-21%	>57
c1ccc(C(c2nnnn2C2CCCC2)N2CCCCCC2)nc1 (stereo not given)	-5%	>57
CC(C)N1C(=S)SC2CS(=O)(=O)C=C21 (stereo not given)	-15%	>57
c1ccc2c(-c3nnc4n3CCCCC4)c[nH]c2c1	?	>57
COCCCN1C(=O)C(=O)/C(=C(/O)c2ccc(OC)cc2)C1c1ccc(O)c(OC)c1 (stereo not given)	0%	>57
O=S1(=O)N=C(Nc2nc3c(s2)CCCC3)c2ccccc21	1%	>57
CC(=O)NC12CC3CC(C1)CC(C(=O)Nc1nccs1)(C3)C2	-3%	>57
COC(=O)C(C(=O)OC)C1O[C@@]23COCCC2(C)C3c2ccccc21 (stereo not given in full)	-11%[8 µM]	·
O=C1c2ccc(-c3nc4ccccc4o3)cc2C(=O)N1Cc1cccnc1	-10%	>57
CCc1cc2c(nc1CC)CCN(CC/C(C)=N/O[C@@H]1O[C@H](COC(C)=O)[C@H](OC(C)=O)[C@H](OC(C)=O)[C@H]1OC(C)=O)C2	-10%[1.6 µM]	·
COc1ccccc1-n1c(SCC(N)=O)nnc1-c1ccccc1	0%	>57
COc1ccccc1-c1cn[nH]c(=S)n1	?	>57
C=C(C)c1ccccc1 (tested in a mixture with another compound)	-2%[8 µM]	>57
COCCn1c(N)c(NCc2ccccc2)c(=O)n(CC(=O)Nc2cc(C)ccc2C)c1=O	5%	>57
COC(=O)C(C)n1cnc2c(cnn2-c2ccc(Cl)cc2)c1=O (stereo not given)	-14%	>57
Cc1ccc(CN(C)C(=O)c2ccccc2Oc2ccccc2)o1	-10%	>57
O=C(CSc1n[nH]c(-c2ccccc2)n1)c1ccccc1	7%	>57

(more compounds)
SMILES	Anthrax LT inh	Prx2 Sm inh
COC(=O)n1c(SC)nc2ccccc21	-1%	>57
CN1CCN(CCCNC(=O)C2CC(=O)N(C3CCCCC3)C2)CC1 (stereo not given)	3%	>57
Cn1c(=O)n(CC(=O)N2CCN(c3nnc(-c4ccccc4)c4ccccc34)CC2)c2ccccc21	8%	>57
O=C(c1cc(-c2ccc(Cl)c(Cl)c2)on1)N1CCCCC1	1%	>57
O=c1[nH]c(CSc2nnc(-c3ccncc3)n2Cc2ccco2)nc2ccccc12	9%	>57
Cc1oc(C)c(C(=O)O)c1COc1ccc(C(=O)O)cc1	10%	>57
O=C(O)[C@H]1CCc2ccc3ccccc3c2[C@H]1c1cccc2ccccc12	-17%[8 µM]	>57
CCOc1ccc(-n2nnc3c(=O)n(CC(=O)N4CCCc5ccccc54)cnc32)cc1	-21%	>57
NC(=O)C1(N2CCCCC2)CCN(C(=O)c2cccn3c(=O)c4cc(Cl)ccc4nc23)CC1	?	>57
COc1ccc(-c2cc(C(F)(F)F)nc(SCC(=O)N3CCOCC3)n2)cc1OC	5%	>57
CCn1c(=O)cc(SCC(=O)NCc2ccco2)c2ccccc21	-28%	>57
COc1cc(NS(=O)(=O)c2ccc(Br)cc2)c(OC)cc1NC(=O)c1ccco1	-24%	>57
COc1ccc(S(=O)(=O)Cc2ccc(C(=O)N3CCCC3)o2)cc1	0%	>57
COc1ccc([N+](=O)[O-])c2c1CCN2C(=O)CC[C@H](N)C(=O)O	?	>57
CCOC(=O)c1sc(C)c2c1NC(C)(c1cccs1)NC2=O (stereo not given)	?	·
N#CC1=C(N)OC2=C(C(=O)CCC2)C1c1ccccc1 (stereo not given)	10%	·
COc1ccccc1NS(=O)(=O)c1ccccc1C#N	-3%	>57
CN1CCN(c2nc(-c3ccccc3C(F)(F)F)nc3ccccc23)CC1	?	>57

High-throughput results from PubChem BioAssay.
